# Source: PubChem (National Center for Advancing Translational Sciences (NCATS))
# 2A StopGo: High Throughput Screening for Foot and Mouth Disease Virus Antivirals; Potency, µM (doses to about 57.9 µM), for the others: at the top dose signal change, negative = less light; actives 1.2% (n = 410,000); human cells with a luciferase reporter of 2A StopGo recoding; control for the full effect not named in the record; active = well fitted falling curve with a large enough effect; inconclusive = small, poorly fitted or top-dose-only effect; inactive = no such curve, though single readings can be large or run the other way; tested in HEK293T cells; further: on the % scale 0 is the no-effect control and ±100 the full control effect; nearly all actives have a fitted effect of over 45% in size; luciferase light after 4 h
# SARS PLP yeast: qHTS of Yeast-based Assay for SARS-CoV PLP | S. cerevisiae expressing SARS-CoV PLpro, growth rescue; control for the full effect not named in the record | Potency, µM (top dose mostly 32.9 µM), for inactives: at the top dose activity, positive = growth rescue | actives 0.19% (n = 330,000); active means well fitted rising curve with a large enough effect; inconclusive means small, poorly fitted or top-dose-only effect; inactive means no such curve, though single readings can be large or run the other way; further: 0% is about no effect; nearly all actives have a fitted effect of over 55% in size; growth read by luminescence after 48 h
# RE007 growth inh: qHTS Assay for Inhibitors of the HIV-1 protein Vpr; S. pombe RE007 Vpr strain, BacTiter-Glo ATP luminescence, 24 h; control for the full effect not named in the record; Potency, µM (doses to about 92.2 µM), for the others: at the highest dose activity change, negative = less growth; actives 0.21% (n = 360,000); AID 651644, 2012; active = well fitted falling curve with a large enough effect; inconclusive = small, poorly fitted or top-dose-only effect; inactive = no such curve, though single readings can be large or run the other way;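 further: on the % scale 0 is the no-effect control and ±100 the full control effect; nearly all actives have a fitted effect of over 50% in size; the assay follows cell death caused by Vpr and the record does not say whether a fall means rescue or toxicity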
#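 Fission yeast RE007 carrying one integrated HIV-1 vpr copy, seeded at OD 0.01 in PMG+AL medium with 23 nL pinned compound. Grown 24 h at 30 degrees; viability read by BacTiter-Glo luminescence after 5 min.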
# * marks the source's active call; other numbers are inactive results; ? = inconclusive; [ ] = remark or other dose. Potency means the concentration at half of the fitted maximal effect. Some of the compounds tested; rates above refer to the full screens.
# Each structure is followed by: 2A StopGo, SARS PLP yeast, RE007 growth inh
> O=C(NCC(F)(F)F)c1ccc(S(=O)(=O)N2CCN(C(=O)C3CCCO3)CC2)cc1 (stereo not drawn)
→ -10%, -1%, 2%
> C=CCN([C@@H](CC(C)C)C(=O)OC)S(=O)(=O)N(CC=C)[C@@H](CC(C)C)C(=O)OC
→ ?, 3%, -5%
> Cc1nc2ccc(NS(=O)(=O)c3ccc(Br)cc3)cc2s1
→ -5%, -1%, 0%
> C[C@@]12C(=O)N(c3ccc(Br)cc3)C(=O)N1[C@@H]1c3ccccc3OC[C@@H]1[C@H]2c1ccccc1
→ 0%, 11%, 3%
> Cc1ccc(NC(=O)COc2ccccc2C(=O)NCc2ccccc2)cc1
→ ?, -3%, -2%
> Cc1ccc(SCC(=O)OCc2csc(CC(=O)Nc3ccccc3C)n2)cc1C
→ -9%, -3%, -8%
> COc1cc(/C=C(/C#N)C(=O)Nc2ccccc2)ccc1OCc1ccc(C(=O)O)cc1
→ 3%, -2%, -5%
> CC(NC(=O)COc1ccc(S(=O)(=O)N2CCOCC2)cc1)c1ccccc1 (stereo not drawn)
→ -13%, 0%, 7%
> Cc1cccc(OCCC(=O)Nc2ccc(C)c(S(=O)(=O)N3CCOCC3)c2)c1
→ ?, -1%, 4%
> CCOc1ccccc1NC(=O)C(c1ccccc1)N1CCN(C(=O)c2ccco2)CC1 (stereo not drawn)
→ -23%, 5%, -13%
> Cc1nc2ccccc2n1CC(=O)c1ccc(O)c(O)c1
→ -22%, -3%, -3%
> C=CC[C@@H](CC(=O)N[C@H](CO)Cc1ccccc1)C(=O)N[C@H](COC(=O)[C@@H](CC=C)Cc1ccc(F)cc1)Cc1ccccc1
→ -19%, -1%, 8%
> CCN(CC)C(=O)Cn1c(=O)n(-c2ccc(CC(=O)NCc3ccccc3)cc2)c(=O)c2sccc21
→ -7%, -1%, 20%
> CN(CC(=O)Nc1ccc(Cl)cc1)CC(=O)Nc1cccc2ccccc12
→ -9%, -8%, -7%
> COC(=O)[C@@]12CCCN1[C@H](c1ccc(-c3ccc(Cl)c(Cl)c3)cc1)[C@H]1C(=O)N(C)C(=O)[C@H]12
→ ?, 7%, -24%
> CCOc1[nH]n(-c2ccccc2)c(=O)c1C=Nc1ccc(OC)cc1
→ 16%, 2%, -17%
> Cc1cc(C)c(NC(=O)COC(=O)C2CCCCC2)c(C)c1
→ -10%, -1%, 11%
> COc1ccc(CCN=C(N)NS(=O)(=O)c2cccs2)cc1
→ 1%, 1%, 6%
> COc1cc(/C=C/C(=O)OCC(=O)Nc2ccc(Cl)cn2)ccc1O
→ -4%, -1%, 5%
> CCN(CC(=O)Nc1cc(Cl)ccc1C)C(=O)c1nc2nc(C)cc(C)n2n1
→ -4%, 6%, -11%
> CCCCN(C(=O)CSc1c(C)c(C)cc(C)c1C)c1c(N)n(CCC)c(=O)[nH]c1=O
→ -7%, -1%, 1%
> O=C1c2cccnc2C(=O)N1CNc1ccc(Cl)cc1
→ 5%, -3%, -5%
> Cn1c(N)c(C(=O)CSc2nc(N)cc(N)n2)c(=O)n(C)c1=O
→ -8%, 4%, 15%
> O=C1NC2(CCCCCC2)N=C1c1ccc(Br)cc1
→ 24%, -3%, -5%
> CCCn1nc(C(=O)Nc2cccc(S(=O)(=O)N(C)c3ccccc3)c2)c2ccccc2c1=O
→ -17%, 1%, 9%
> C[C@H](NC(=O)c1nc[nH]c1C(=O)NCCCCCN)C(=O)OCc1ccccc1
→ -5%, 5%, 10%
> O=C(NCc1ccccc1)Nc1cccc2ccccc12
→ 59%[activator], 1%, 11%
> CCOC(=O)c1ccc(S(=O)(=O)N2CCN(C/C=C/c3ccccc3)CC2)cc1
→ -2%, -1%, 0%
> CN(CC(=O)Nc1ccccc1Cl)C(=O)C1CSC2(C)CCC(=O)N12 (stereo not drawn)
→ -3%, -5%, -5%
> COc1ccc(CNC(=O)CCn2c(C)csc2=O)cc1
→ 1%, -2%, -7%

# Carrying on:
# Each structure is followed by: 2A StopGo, SARS PLP yeast, RE007 growth inh
> CC(C(=O)c1ccc2ccccc2c1)N1CCCCC1 (stereo not drawn)
→ 0%, 3%, -18%
> O=C(COC(=O)c1cc(=O)[nH]c2ccccc12)NCc1ccc(Cl)cc1
→ 1%, -1%, 28%
> O=[N+]([O-])c1ccccc1N/N=C1\CC2CC=CC12 (stereo not drawn)
→ 0%, -1%, -1%
> O=C(Cc1cccc([N+](=O)[O-])c1)Nc1cccc(C(=O)N2CCOCC2)c1
→ 1%, 3%, 0%
> COc1ccc(S(=O)(=O)CCC(=O)N2CCN(c3ccc(F)cc3)CC2)cc1
→ -11%, -1%, 12%
> CCn1c(C)cs/c1=N\S(=O)(=O)c1ccccc1
→ 30%[activator], 8%, -1%
> Cc1ccc(S(=O)(=O)N(C)C)cc1NC(=O)CN1c2cccc3cccc(c23)S1(=O)=O
→ -17%, 2%, -2%
> COc1ccc(CCN(C)C(=O)C(CCSC)NC(=O)c2ccco2)cc1OC (stereo not drawn)
→ -17%, 5%, 5%
> O=c1c2c(O)cc(O)cc2oc2ccc(O)c(O[C@@H]3O[C@H](CO)[C@@H](O)[C@H](O)[C@H]3O[C@H]3O[C@H](CO)[C@@H](O)[C@H](O)[C@H]3O)c12
→ -9%, 0%, -2%
> COc1ccccc1-c1sc2cc3c(cc2c1C#Cc1ccccn1)OCO3
→ 13%, -7%, -2%
> COc1cc(C#Cc2c(C=O)n(C)c3ccccc23)cc(OC)c1
→ -7%, -2%, 4%
> C=CC[C@@H](CC(=O)N(CCO)Cc1ccccc1)C(=O)N[C@H](COC(=O)[C@@H](CC=C)Cc1ccc(F)cc1)Cc1c[nH]c2ccccc12
→ ?, 1%, 1%
> O=C(CN1C(=O)NC(Cc2c[nH]c3ccccc23)C1=O)NC1CCCCC1 (stereo not drawn)
→ -5%, 3%, -10%
> COc1ccc(Br)c(C(=O)OCC(=O)NC(=O)NC2CCCC2)c1
→ -22%, -10%, 1%
> COc1ccc(-c2cc(-c3ccccc3)no2)cc1
→ -40%, -12%, -20%
> CC1CN(C(=O)Nc2ccc(F)cc2)C2(CCCCCC2)O1 (stereo not drawn)
→ 7%, -1%, -2%
> CCN1CCN=C1Nc1ccccc1
→ -19%, -26%, -22%
> CC(C)[C@H](N)c1cn([C@@H](CO)C(=O)N2CCNCC2)nn1
→ -14%, -3%, 0%
> O=C(O)C1=CC[C@@H](c2ccc(Cl)cc2)N(S(=O)(=O)c2ccc(Cl)cc2)[C@H]1c1ccccc1
→ -15%, -1%, -3%
> CN(CC(=O)Nc1ccccc1Cl)C(=O)CSc1nnc(-c2ccco2)n1C
→ 1%, 5%, -12%
> C#CCOCCOCCOCCNc1nc(N2CCN(C(=O)[C@H](CCC(=O)O)n3cc(CN)nn3)CC2)nc(N2CCN(C(=O)[C@H](CCCCN)n3cc([C@@H](N)CC(N)=O)nn3)CC2)n1
→ -3%, -1%, 3%
> O=C1C=C(c2cccc(Cl)c2O)C[C@@H](c2ccc(F)cc2)C1
→ -5%, -8%, -28%
> CCC1(c2ccc(F)cc2)NC(=O)N(CC(=O)N2c3ccccc3CC2C)C1=O (stereo not drawn)
→ 5%, 2%, -7%
> COc1ccc(Cl)cc1C(=O)NNC(=O)CNC(=O)c1ccco1
→ -8%, 0%, -7%
> CC(=O)Nc1ccc(S[C@@H](CCN2CC[C@H](C(C)(C)C)CCC2=O)c2ccccc2)cc1
→ ?, 0%, -14%
> O=C1C=C(c2ccc3c(c2)OCO3)C[C@@H](c2ccc(F)cc2)C1
→ -6%, 2%, -17%
> CCN(C(=O)COC(=O)c1cc(Cl)ccc1OC)c1c(N)n(Cc2ccccc2)c(=O)[nH]c1=O
→ -9%, -1%, -15%
> COc1ccc(C(=O)Nc2nc(C)c(C(C)=O)s2)cc1S(=O)(=O)N1CCOCC1
→ -10%, -7%, 9%
> N#Cc1ccccc1OCC(=O)Nc1ccc(N2CCOCC2)cc1N1CCOCC1
→ 3%, -8%, 0%
> Cc1ccc2c(c1)-c1[nH]c(=S)ncc1CS2
→ -4%, 7%, 3%

# Profiles, looked up by structure.
# COc1ccc(C(=O)Nc2nc(C)c(C(C)=O)s2)cc1S(=O)(=O)N1CCOCC1 in the list: 2A StopGo = -10%; SARS PLP yeast = -7%; RE007 growth inh = 9%
# C=CC[C@@H](CC(=O)N(CCO)Cc1ccccc1)C(=O)N[C@H](COC(=O)[C@@H](CC=C)Cc1ccc(F)cc1)Cc1c[nH]c2ccccc12 in the list: 2A StopGo = ?; SARS PLP yeast = 1%; RE007 growth inh = 1%

# 7 of these compounds, set out differently:
Molecule | 2A StopGo | SARS PLP yeast | RE007 growth inh
COc1ccc(Br)c(C(=O)OCC(=O)NC(=O)NC2CCCC2)c1 | -22% | -10% | 1%
Cn1c(N)c(C(=O)CSc2nc(N)cc(N)n2)c(=O)n(C)c1=O | -8% | 4% | 15%
N#Cc1ccccc1OCC(=O)Nc1ccc(N2CCOCC2)cc1N1CCOCC1 | 3% | -8% | 0%
COc1cc(C#Cc2c(C=O)n(C)c3ccccc23)cc(OC)c1 | -7% | -2% | 4%
Cc1ccc(SCC(=O)OCc2csc(CC(=O)Nc3ccccc3C)n2)cc1C | -9% | -3% | -8%
O=C(O)C1=CC[C@@H](c2ccc(Cl)cc2)N(S(=O)(=O)c2ccc(Cl)cc2)[C@H]1c1ccccc1 | -15% | -1% | -3%
COc1ccc(CCN(C)C(=O)C(CCSC)NC(=O)c2ccco2)cc1OC (stereo not drawn) | -17% | 5% | 5%

# Next results follow.
# Each structure is followed by: 2A StopGo, SARS PLP yeast, RE007 growth inh
> COC(=O)[C@@]1(Cc2ccccc2)[C@H]2C(=O)N(Cc3ccccc3)C(=O)[C@H]2[C@H]2CN=C(SCC3CC3)N21
→ ?, -12%, -19%
> C=CCC(NC(=O)c1ccc(C#N)cc1)C(=O)NCCC (stereo not drawn)
→ -3%, 2%, 2%
> CCCCn1c(N)c(N(CC(C)C)C(=O)c2ccc(C)o2)c(=O)[nH]c1=O
→ -11%, 3%, 2%
> CC(=O)C[C@@H](O)CC(=O)[C@@H]1OC(=O)CCCCCc2ccccc21
→ -11%, 5%, 8%
> C[C@H](CO)N1C[C@H](C)[C@@H](CN(C)S(=O)(=O)c2ccc(F)cc2)Oc2ccc(NC(=O)C3CC3)cc2C1=O
→ -27%, -5%, 1%
> OCC[C@H]1C[C@@H](O)[C@H](O)[C@@]2(CCCc3ccccc3O2)O1
→ -5%, 6%, 10%
> Cc1ccc(C(O)Cn2nc(C)cc2C)cc1 (stereo not drawn)
→ 2%, -1%, 25%
> O=C(NCc1ccco1)c1cccc2c1C(=O)c1ccc(/C=C/c3ccccc3)cc1S2(=O)=O
→ 0%, -5%, 0%
> CC(=O)OC[C@H]1O[C@@H](O[C@H]2C[C@]3(C)C(C[C@@H](O)C4C([C@]5(C)CC[C@@H](C(C)(C)O)O5)CC[C@]43C)[C@@]3(C)CC[C@H](O)C(C)(C)C23)[C@H](O[C@@H]2O[C@@H](C)[C@H](O)[C@@H](O)[C@H]2O)[C@@H](O)[C@@H]1O (stereo partly drawn)
→ -16%, -5%, 9%
> Cc1ccccc1-c1n[nH]c(=S)n1/N=C/c1ccc(-c2ccccc2Br)o1
→ -14%, 0%, 1%
> COC(=O)C1=C(c2ccc(F)cc2OCc2ccccc2)C[C@@H]2CC[C@H]1N2C(=O)N1CCC(O)CC1
→ -20%, -5%, 0%
> CC[C@@H]1C=C(C(=O)O)[C@H](c2cccc(C)c2)N1S(=O)(=O)c1ccc(C)cc1
→ 0%, -3%, -25%
> COc1ccc(S(=O)(=O)Nc2cccc3c2O[C@H](CN(C)Cc2ccncc2)[C@@H](C)CN([C@H](C)CO)C3=O)cc1
→ 59%[activator], 8%, 6%
> COc1ccccc1-n1cnnc1SCC(=O)NC1CCCC1
→ -13%, 0%, 4%
> CN(C)c1ccc(/C=N/NC(=O)c2ccc(-n3cnnn3)cc2)cc1
→ 7%, 1%, -11%
> NC(=O)c1nn(CC(=O)Nc2cccc(S(=O)(=O)N3CCCC3)c2)c(=O)c2ccccc12
→ 0%, 4%, 6%
> COc1ccccc1NC(=O)C(C)Sc1nc(-c2ccccc2)cn1N (stereo not drawn)
→ -18%, -11%, 0%
> O=C(CCC(=O)Nc1ccccc1Cl)NNC(=O)c1ccccc1[N+](=O)[O-]
→ 4%, 1%, -13%
> Cc1cc(=O)oc2cc(OCC(=O)N3CCCC3)c(Cl)cc12
→ -8%, 8%, -3%
> CCN(C[C@H]1N[C@@](C)(C(=O)OC)[C@H]2C(=O)N(Cc3ccccc3)C(=O)[C@@H]12)C(=O)COC
→ 0%, 1%, 1%
> COC(=O)C1=C(c2cccc(OCc3ccccc3)c2)C[C@@H]2CC[C@H]1N2C(=O)NCc1ccccc1OC
→ -7%, -4%, -3%
> CN(Cc1ccc(OC(F)F)cc1)C(=O)c1ccc(S(=O)(=O)N(C)c2ccccc2)cc1
→ ?, 5%, -3%
